LASV entry inh – blocks Lassa virus binding or cell entry | Lassa virus pseudotyped entry inhibition, cell-based qHTS; control for the full effect not named in the record; many of its hits are not listed in these tables | 18,000 tested, 4.1% active | Potency, µM (top dose mostly 49.2 µM), without a hit: at the top dose activity change, negative = inhibition, actives largely listed as inhibitors; active = well fitted inhibition curve with a large enough effect; inconclusive = small, poorly fitted or top-dose-only effect; inactive = no such curve, though single readings can be large or run the other way; tested in HEK293 cells; note: luciferase read-out
Marburg entry – blocks Marburg virus binding or cell entry. Potency, µM (highest dose often 49.2 µM), without a hit: at the top dose activity change, negative = inhibition, usual class: inhibitors. AID 720532. Marburg virus pseudotype entry/binding inhibition, cell-based; control for the full effect not named in the record; many of its hits are not listed in these tables. 18,000 tested, 6.5% active; active means well fitted inhibition curve with a large enough effect; inconclusive means small, poorly fitted or top-dose-only effect; inactive means no such curve, though single readings can be large or run the other way; tested in HEK293 cells; note: luciferase read-out
* marks the source's active call; other numbers are inactive results; ? = inconclusive; / = no result given; & = joins results of further samples; [ ] = another dose, or the depositor's remark. % is set by controls: 0 for no effect and ±100 for the full control effect; potency is the fitted concentration of half-maximal effect.

Under each structure: LASV entry inh	Marburg entry
- CCC(C)(Oc1ccc(C2(c3ccc(OC(C)(CC)C(=O)O)cc3)CCCCC2)cc1)C(=O)O (stereo not given)
    -12.5%	-8.4%
- COc1ccc2c(=O)cc(-c3ccccc3)oc2c1O
    -1.1%	-0.4%
- COC(=O)C1CCCCN1Cc1ccc2c(c1)CN(C(=O)c1cc(C)nc3cc(F)ccc13)CCO2 (stereo not given)
    -6.4%	-14.5%
- CCSc1ccc2c(c1)N(CCCN1CCN(C)CC1)c1ccccc1S2
    -17.3%[17.8 µM]	?
- Cc1ccc(C(=O)NCCc2nnc3n2CCN(Cc2ccnc4ccccc24)CC3)c(C)c1
    -3.2%	-4.1%
- COc1cccc(-c2cc3c(c(OC)c2)OCCN(S(=O)(=O)c2ccccc2OC(F)(F)F)C3)n1
    1.1%	-27.7%
- CC(C)(C)OC(=O)C(Br)CCBr (stereo not given)
    5.0%	4.6%
- CCOC(=O)C1=C(CCl)NC(=O)N(C(C)=O)C1c1ccccc1 (stereo not given)
    /	-21.7%[8.59 µM]
- Clc1ccc(Cl)cc1
    -12.2%	16.6%
- CCOC(=O)[C@@H]1CSCCS(=O)(=O)N1
    -12.2%	-28.8%

The list continues.
Under each structure: LASV entry inh	Marburg entry
- CCN(CC)/[N+]([O-])=N/O
    -14.9%	-3.1%
- O=C(NCC1(N2CCOCC2)CCCC1)c1cnn(-c2ncc3c(n2)-c2ccccc2CC3)c1C1CC1
    -6.7%	9.5%
- CC(=O)Nc1cccc(-c2cc3c(c4c2ccn4C)C2CCC3C2)c1 (stereo not given)
    26.6%	-9.3%
- CC[C@H](C)[C@H](NC(=O)[C@H](CCC(=O)O)NC(=O)CNC(=O)[C@@H](NC(=O)[C@H](CCC(=O)O)NC(=O)[C@H](CCC(=O)O)NC(=O)[C@H](CC(C)C)NC(=O)CNC(=O)[C@@H]1CCCN1C(=O)[C@H](CCC(=O)O)NC(=O)[C@@H](N)[C@@H](C)O)C(C)C)C(=O)N[C@@H](CCC(=O)O)C(=O)N[C@@H](CCC(N)=O)C(=O)N[C@@H](CCCCN)C(=O)N[C@@H](CCC(N)=O)C(=O)N[C@@H](CC(C)C)C(=O)N[C@@H](CCC(N)=O)C(=O)O
    -10.8%	5.5%
- COc1cc(CN2CCC3(CC2)c2ccccc2[C@@H](NC(=O)c2ccccc2OC)[C@@H]3O)ccc1F
    ?	?
- CO[C@H]1[C@H](NC(=O)c2ccsc2)c2ccccc2C12CCN(Cc1cccn1-c1ccccn1)CC2
    -21.6%	?
- Cc1nnc(C(C)C)n1C1C[C@H]2CC[C@@H](C1)N2CC[C@H](NC(=O)C1CCC(F)(F)CC1)c1ccccc1 (stereo not given in full)
    0.6%	7.0%
- Cc1nc2sccn2c1CN1Cc2ccccc2OC(c2ccccc2F)C1 (stereo not given)
    -17.5%	-12.7%
- Cc1cccc(C(=O)NCc2nc(-c3cccc(NC(=O)C4CCCN(C)C4)c3)oc2C)n1 (stereo not given)
    -5.3%	?
- NS(=O)(=O)c1cc2c(cc1Cl)NC(CSCc1ccccc1)=NS2(=O)=O
    3.7%[17.8 µM]	2.7%[17.8 µM]

Other results follow:
Under each structure: LASV entry inh	Marburg entry
- O=C(O)c1ccccc1Nc1ccc(CCc2ccc(Cl)c(Cl)c2)cc1
    -23.1%	-27.5%
- CN=C1CN(O)C(c2ccccc2)=c2cc(Cl)ccc2=N1
    -18.4%&-16.1%	-0.3%&-14.8%
- C[C@H](N)C(=O)N[C@@H](C)C(=O)N[C@@H](Cc1ccccc1)C(=O)CCl
    -5.6%	?
- CC1CN(CC(=O)NCCC2COc3ccccc3O2)Cc2cc(Cl)ccc2O1 (stereo not given)
    3.5%	-20.2%
- CO[C@H]1[C@H](NC(=O)c2ccncc2)c2ccccc2C12CCN(C(=O)c1ccoc1)CC2
    0.4%	5.5%
- Cc1nnc(-c2ccc(C)c(-c3ccc(C(=O)Nc4cccc(C#N)c4)cc3)c2)o1
    /	46.2%[activator]
- C=C1C[C@@]23CC4C5[C@@]6(C)C[C@H](O)C[C@@]57C2[C@H](O)[C@@H]1[C@H](O)[C@H]3[C@H]7N4C6
    -13.7%	-20.2%
- C=CCN(CC=C)Cc1cc(=O)oc2cc(C)c(Cl)cc12
    10.9%	-14.6%
- CCC1COC(Cn2cncn2)(c2ccc(Cl)cc2Cl)O1 (stereo not given)
    -3.8%	11.1%
- CC(C)(C)CC(C)(C)c1ccc(O)c(Cc2ccc(Cl)cc2Cl)c1
    ?	-3.4%

More records follow.
Under each structure: LASV entry inh	Marburg entry
- COc1ccc([N+](=O)[O-])c2c1CCN2C(=O)CC[C@H](N)C(=O)O
    -9.3%	0.4%
- COc1ccc(NS(=O)(=O)c2ccc(N)cc2)nn1
    -6.2%[17.8 µM]	-9.3%[17.8 µM]
- CC(=O)O[C@H]1C2[C@@H](OC(=O)Cc3ccccc3)[C@@H](C)C[C@]2(OC(C)=O)C(=O)/C(C)=C/[C@@H]2[C@H](CC[C@@]13CO3)C2(C)C (stereo not given in full)
    -28.0%	?
- O=C(CCCN1CCN2CCCC2C1)c1ccc(F)cc1 (stereo not given)
    -8.9%	-11.9%
- COc1cc2c(cc1OC)[C@@H]1O[C@](c3ccsc3)(C2)Oc2cc(-c3ccccc3)oc(=O)c21
    16.9%&5.2%[8.59 µM]	?
- COC(=O)c1cc(=O)c(O)c2c(O)c(O)ccc2c1
    -10.0%	?
- CCCCNc1ccc(C(=O)OCCN(CC)CC)cc1
    -8.3%	?
- COc1cc(-c2cc(C)c3cccc(OC)c3n2)cc2c1OCCN(C(=O)Cn1nc(C)cc1C)C2
    -1.9%	0.0%
- CC[C@H](C)CCCCC(=O)N[C@@H](CCN)C(=O)N[C@H](C(=O)N[C@@H](CCN)C(=O)N[C@H]1CCNC(=O)[C@H]([C@@H](C)O)NC(=O)[C@H](CCN)NC(=O)[C@H](CCN)NC(=O)[C@H](CC(C)C)NC(=O)[C@@H](CC(C)C)NC(=O)[C@H](CCN)NC1=O)[C@@H](C)O
    -3.7%	6.4%
- O=c1ccn([C@@H]2O[C@H](COP(=O)(O)O)[C@@H](O)[C@H]2O)c(=O)[nH]1
    -4.1%	14.9%

Carrying on:
Under each structure: LASV entry inh	Marburg entry
- Cc1ncoc1C(=O)NCc1nc(-c2cccc(NC(=O)c3ccccn3)c2)oc1C
    -17.2%	2.4%
- CC(CN(C)C)C(C)(O)Cc1ccc(Cl)cc1 (stereo not given)
    -5.3%	-0.9%
- CCc1cc2c(nc1CC)CCN(CCC(C)=NO[C@@H](C)CN1CCCc3nc(C)c(C)cc31)C2
    -10.5%[8.59 µM]	-24.3%[8.59 µM]
- CCC1(C2CCN(C(=O)c3ccccc3C)CC2)NC(=O)N(CCc2scnc2C)C1=O (stereo not given)
    -3.2%	-11.1%
- OC[C@H]1NC[C@@H](O)[C@@H](O)[C@@H]1O
    4.3%	8.5%
- CCCCn1c(C)cc2c(c1=O)[C@H]1O[C@](c3ccsc3)(Cc3ccccc31)O2
    11.5%[8.59 µM]	?
- C/C(=C\c1ccc(C(=O)O)cc1)c1ccc2c(c1)C(C)(C)CCC2(C)C
    -6.5%&-7.8%&1.8%&-27.8%	-9.3%&4.3%&-15.1%&-11.1%
- O.O=C([O-])CC([S-])C(=O)[O-].[Au+].[Na+].[Na+] (stereo not given)
    -1.1%	10.1%
- COc1cc2oc(=O)cc(-c3ccc(-c4ccc(O)cc4)cc3)c2c(OC)c1OC
    ?	?
- CCOC(=O)[C@H](CCc1ccccc1)N[C@@H](C)C(=O)N1CC2(C[C@H]1C(=O)O)SCCS2
    -3.3%	1.2%

Next compounds
Under each structure: LASV entry inh	Marburg entry
- C[C@H]1[C@H](c2ccccc2)Oc2ccc(Cl)cc2S(=O)(=O)N1CC1CCCN1C(=O)OC(C)(C)C (stereo not given in full)
    /	?
- CCn1nc(C)c(CN2Cc3ccccc3OC(c3ccccc3OC)C2)c1C (stereo not given)
    -0.4%	?
- CCC(C)c1cc([N+](=O)[O-])cc([N+](=O)[O-])c1OC(C)=O (stereo not given)
    -8.0%	-4.6%
- COc1cc(=O)n2c(c1C(=O)NC(C)c1ccco1)CCN(Cc1ccccc1C(F)(F)F)CC2 (stereo not given)
    -6.4%	0.6%
- Cc1c(C(=O)N(C)CC2CCCN(C)C2)cnn1-c1nccc(-c2ccco2)n1 (stereo not given)
    -14.0%	18.6%
- CC1(C)C(\C=C/C=C\C=C/C=C2/N(CCCCS(=O)(=O)O)c3ccc4ccccc4c3C2(C)C)=[N+](CCCCS(=O)(=O)[O-])c2ccc3ccccc3c21
    ?	?
- CC(C)NC[C@H](O)c1ccc(N)c(C#N)c1
    2.9%	19.2%
- CCCCC1=CC2=C(c3ccco3)C(=O)C(C)(OC(=O)c3ccc(OC)cc3)C(=O)C2=CN1Cc1ccccc1 (stereo not given)
    10.1%[8.59 µM]	3.5%[8.59 µM]
- COCCN1C(=O)NC(c2ccc(Br)cc2)C(C(C)=O)=C1C (stereo not given)
    2.2%[8.59 µM]	63.1%[8.59 µM]
- Cc1cc(C(=O)N2CCOc3ccc(CN4CCC(Oc5cccnc5)CC4)cc3C2)c(C)o1
    -1.7%	?

(further entries)
Under each structure: LASV entry inh	Marburg entry
- c1ccc2c(c1)[I+]c1ccccc1-2
    0.891µM*	?
- CC(C)=CCC[C@@](C)(O)[C@H]1CC=C(C)CC1
    6.2%	-5.2%
- CC(C)=NOCc1ccc(-c2cn([C@@H]3COC[C@@H]3O)nn2)cc1
    10.9%[8.59 µM]	14.6%[8.59 µM]
- O=C(c1ccoc1)N1CCOc2ccc(CN3CCC(Oc4cccnc4)CC3)cc2C1
    -8.7%	1.3%
- CCCCC1=CC2=CC(=O)C(C)(OC(=O)c3cnc4ccccc4n3)C(=O)C2=CO1 (stereo not given)
    1.7%	-2.7%
- NC(N)=NCCC[C@H](N)C(=O)NCC(=O)N[C@@H](CC(=O)O)C(=O)N[C@@H](CO)C(=O)O
    -0.7%	-6.9%
- COc1ccccc1N1CCN(c2nc(CNC(=O)c3ccc4c(c3)OCO4)nc3ccccc23)CC1
    ?	?
- C#CCN(C)[C@H](C)Cc1ccccc1
    17.6%	11.6%&1.1%&-2.3%
- CC(=O)CCOC1CCCCO1 (stereo not given)
    -6.9%	10.9%
- CC1C(=O)N(Cc2cn(CCC3OCCO3)nn2)CCS(=O)(=O)N1Cc1ccc(-c2ccc(F)nc2)cc1 (stereo not given)
    -29.8%	-3.6%

By substructure, those above with two or more sulfur atoms
Under each structure: LASV entry inh	Marburg entry
- CCSc1ccc2c(c1)N(CCCN1CCN(C)CC1)c1ccccc1S2
    -17.3%[17.8 µM]	?
- CCOC(=O)[C@@H]1CSCCS(=O)(=O)N1
    -12.2%	-28.8%
- NS(=O)(=O)c1cc2c(cc1Cl)NC(CSCc1ccccc1)=NS2(=O)=O
    3.7%[17.8 µM]	2.7%[17.8 µM]
- CCOC(=O)[C@H](CCc1ccccc1)N[C@@H](C)C(=O)N1CC2(C[C@H]1C(=O)O)SCCS2
    -3.3%	1.2%
- CC1(C)C(\C=C/C=C\C=C/C=C2/N(CCCCS(=O)(=O)O)c3ccc4ccccc4c3C2(C)C)=[N+](CCCCS(=O)(=O)[O-])c2ccc3ccccc3c21
    ?	?

The listing continues.
Under each structure: LASV entry inh	Marburg entry
- CC(CC(C#N)(c1ccccc1)c1ccccc1)N(C)C (stereo not given)
    ?	31.6µM*
- C=C1C2CC[C@@]3(C)C(c4ccoc4)OC(=O)C[C@@]13OC1CC(=O)C(C)(C)C(C(O)C(=O)OC)[C@]12C (stereo not given in full)
    3.3%	-19.4%
- COc1cc2c(cc1OC)[C@@H](Cc1cc(OC)c(OC)c(OC)c1)[N+](C)(CCCOC(=O)CC/C=C/CCC(=O)OCCC[N+]1(C)CCc3cc(OC)c(OC)cc3[C@H]1Cc1cc(OC)c(OC)c(OC)c1)CC2 (stereo not given in full)
    -10.3%&-15.0%	15.4%&12.8%
- CN(C)[C@H](Cc1ccccc1)c1ccccc1
    -1.0%	2.0%
- CN1CCN(C2=Nc3ccccc3Oc3ccc(Cl)cc32)CC1
    -6.3%[17.8 µM]	?
- CCCC(=O)O[C@]1(C(=O)COC(=O)CC)CC[C@H]2[C@@H]3CCC4=CC(=O)CC[C@]4(C)[C@H]3[C@@H](O)C[C@@]21C
    -16.4%	1.2%
- CCN(CCO)CCn1c(Cc2ccccc2)nc2c1c(=O)n(C)c(=O)n2C
    -10.1%	-7.3%
- COC(=O)C[C@H]1c2ccccc2[C@@H]2C(=C[C@@H](C)[C@H]3C(=O)NC(=O)[C@H]32)N1C(=O)OC
    -6.3%[8.59 µM]	2.7%[8.59 µM]
- CCCCn1c(=O)c2[nH]c(C34CC5CC(CC3C5)C4)nc2n(CCCO)c1=O
    -7.1%	18.3%
- CC(=O)N1CCCC1C(=O)O (stereo not given)
    -1.9%	8.9%

(listing goes on)
Under each structure: LASV entry inh	Marburg entry
- Cc1cc2c(c(C)c1Br)C(c1ccc3c(c1)OCO3)CC(=O)O2 (stereo not given)
    ?	?
- COc1cccc([C@@H]2Oc3ccc(Br)cc3C(=O)[C@H]2OC(=O)NCc2ccc3c(c2)OCO3)c1
    -0.9%	16.4%
- Cc1cc(C(=O)Nc2ccccc2-c2nc(CNC(=O)c3cscn3)c(C)o2)c(C)o1
    -15.5%	-14.5%
- CCn1c(-c2ccccc2F)nc2cc(C(=O)N3CCCC(CO)C3)cc(NC(C)=O)c21 (stereo not given)
    0.2%	4.4%
- CC(NCCC(c1ccccc1)c1ccccc1)c1ccccc1 (stereo not given)
    ?	11.2µM*

Assay outcomes as filed in PubChem BioAssay.

Not all compounds are listed. The share of hits here may be higher or lower than overall.
